From PubChem BioAssay
MT1-MMP act inh = blockers of MT1-MMP proenzyme processing, primary screen, HT1080 RFP-PRO-GFP cells, GFP/RFP fluorescence. GFP/RFP ratio change, % at 20 µM. AID 651647, 2012. hit rate 0.061% among 360,000. Matrix metalloproteinase-14 (Homo sapiens), P50281. GFP/RFP ratio fluorescence, overnight; percent of plate control window, DMSO zero;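 active means GFP/RFP ratio change of at least 30% with cell ATP level not reduced by more than half and red fluorescence within 50% of control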; further: strong numbers were not always called active
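Compound: 20 µM single dose, 1% DMSO / System: HT1080 RFP-PRO-GFP cells / Controls: DMSO and RFP-L50D-GFP cell wells / Read-out basis: GFP/RFP fluorescence ratio / Schedule: overnight compound exposure at 37 °C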
HIV Env fusion = inhibitors of HIV-1 Env-driven cell-cell fusion, primary screen, HeLa-JRFL effector, CEM21 target cells, luciferase | inhibition, % at 12.3 µM | hit rate 1.1% among 360,000;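 active means mean replicate inhibition score of at least 50 and every replicate individually at or above 50; inconclusive means only one of the two criteria met; inactive means mean below 50 and not all replicates reaching 50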;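 further: 0% = plate neutral controls and 100% = maraviroc near 300 nM; one replicate is shown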
CSC inhib = cancer stem cell viability inhibitors, primary screen, luminescence | cancer stem cell-like cells viability | inhibition, % at 7.5 µM | hit rate 1.1% among 300,000 | AID 2717, 2010;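 active means mean at 75% or more and at least half the replicates too; inconclusive means mean and replicates disagree; tested in HMLE shEcad cells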;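 further: 0% = median of negative and 100% = median of positive control wells; the first replicate is given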
PABP polyA inh = PABP poly(A) RNA binding inhibitors, primary screen, biochemical, fluorescence polarization, uHTS; inhibition, % at 35 µM; AID 2014, 2009; hit rate 1% among 290,000;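 active means 50% or more with normal probe brightness, or confirmed in later tests; inconclusive means above 50% with abnormal brightness, or retests that disagree; inactive means below 50% or failed in later tests; about a fifth of its hits are not listed in these tables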;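 further: calls also rest on retests at 20 µM and on dose response follow-up; controls were probe without protein and protein plus probe with vehicle; some compounds called inactive have numbers as strong as hits; many hits fall short of the cut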
UUG fidelity = modulators of yeast start codon fidelity, primary screen, whole organism, S. cerevisiae, single point, plate reader. S. cerevisiae UUG-firefly luciferase reporter, luminescence/redox ratio. activity score, % at 18.7 µM. hit rate 0.13% among 350,000;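 active means replicate mean at a twofold rise or more, about +100% in these data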;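 further: firefly luciferase made from a UUG start codon reports start codon fidelity; reporter light over untreated wells divided by growth signal over untreated wells; some hits fall short of that in this replicate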
Rce1 inh = yeast Rce1p protease inhibitors, primary screen, biochemical, fluorescence, cell-free homogeneous; yeast membranes, quenched prenylated peptide cleavage fluorescence; hit rate 0.27% among 290,000; calls only; CAAX prenyl protease 2 (Saccharomyces cerevisiae (strain ATCC 204508 / S288c)), Q03530;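 active means fall in fluorescence gain of 50% or more versus controls, with final raw signal at or below 3038400; inconclusive means same 50% fall but final raw signal above 3038400; inactive means fall in fluorescence gain under 50%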;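 further: plate controls were neutral control wells for no effect and wells lacking membranes for full effect; tested at 10 µM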
Target sequence (Q03530 whole entry, looked up): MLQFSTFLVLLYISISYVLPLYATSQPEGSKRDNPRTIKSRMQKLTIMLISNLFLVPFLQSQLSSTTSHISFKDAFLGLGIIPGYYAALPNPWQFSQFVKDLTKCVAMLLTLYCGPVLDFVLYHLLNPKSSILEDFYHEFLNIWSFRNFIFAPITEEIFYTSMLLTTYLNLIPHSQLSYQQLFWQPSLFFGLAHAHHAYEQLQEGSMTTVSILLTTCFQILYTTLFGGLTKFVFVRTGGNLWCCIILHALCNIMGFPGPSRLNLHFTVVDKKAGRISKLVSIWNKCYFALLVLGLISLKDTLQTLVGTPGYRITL
eIF4H FP inh = human eIF4H binding inhibitors, primary screen, translation initiation inhibitor project, biochemical, uHTS, fluorescence polarization; Eukaryotic translation initiation factor 4H (Homo sapiens), Q15056; eIF4H fluorescence polarization binding assay; inhibition, % at 35 µM; hit rate 0.94% among 290,000; AID 2012, 2009;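 active means 50% or more with normal probe brightness, or confirmed in later tests; inconclusive means above 50% with abnormal brightness, or retests that disagree; inactive means below 50% or failed in later tests; about a fifth of its hits are not listed in these tables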;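 further: calls also rest on retests at 20 µM and on dose response follow-up; 0% = protein and probe with vehicle and 100% = probe without protein; strong numbers were not always called active; many hits fall short of the cut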
MT1-MMP act inh RFP = recorded beside MT1-MMP act inh, whose call it bears; RFP signal change, %; measured here: RFP expression control read;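 0 = vehicle wells; hits needed this value within 50% of zero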
Starred values were filed as active, the others as inactive; i = inactive; u = inconclusive; x = no result given. No enrichment for hits; 2.9% or so of the library scored in one or more.

SMILES	MT1-MMP act inh	MT1-MMP act inh RFP	HIV Env fusion	CSC inhib	PABP polyA inh	UUG fidelity	Rce1 inh	eIF4H FP inh
CCc1ccc(OCC(=O)NNC(=S)NC(=O)C2CCCCC2)c(Br)c1	5	3	30	7	2	-15	x	21
COc1ccc2c(c1OC)C(=O)N(c1ccc3c(c1)CCC3)C2=O	6	2	-40	8	20	-9	i	-5
COc1ccc(S(=O)(=O)N(CC(=O)NCc2ccncc2)c2ccc(C)cc2)cc1OC	2	1	-36	-8	15	-3	i	-4
Cc1cc(C)c(NC(=O)c2ccc3c(c2)C(=O)N(Cc2cccnc2)C3=O)c(C)c1	2	5	8	5	-5	-22	i	-10
CCCCNC(=S)NC(=O)c1ccc(Cl)cc1Cl	-4	2	x	21	-1	-13	i	-15
COc1ccc(N2C(=S)N(C(=O)c3ccccc3)C(=Nc3ccccc3)C2=Nc2ccccc2)cc1	1	-2	-246	4	x	-36	i	x
CCOC(=O)c1c(C)oc2ccc(OC(=O)N3CCOCC3)cc12	0	-2	x	x	-3	-16	i	-16
CCOC(=O)C(NC(=O)Cc1ccccc1)(Nc1cc(C)on1)C(F)(F)F (stereo unspecified)	6	0	-66	-11	-6	-14	i	0
CCOC(=O)CSc1nc(C(C)(C)C)nc2ccccc12	1	2	10	-10	0	x	i	-10
CCS(=O)(=O)Nc1cc(C(=O)OC)ccc1C(=O)OC	4	2	-6	-5	4	-14	i	9
O=C1C=C(NCCOC23CC4CC(CC(C4)C2)C3)C2(CCCCC2)O1	3	1	10	33	1	x	i	-8
Cc1occc1C(=O)NCc1ccccc1F	-15	4	x	-3	5	-10	i	13
CCn1c(SCC(=O)Nc2ccc(C(C)=O)cc2)nc2nc3c(cc2c1=O)CCCC3	-10	-6	-29	-18	1	-9	i	-4
COCc1ccc(C(=O)N2CCCC(N3CCN(c4ccccc4C)CC3)C2)s1 (stereo unspecified)	2	1	2	-6	8	-2	i	-14
NC(=O)CSc1nnc(Cc2csc(Nc3ccc(F)cc3)n2)n1Cc1ccccc1	4	0	x	3	-10	-21	i	4
Cc1cc(C)c2cc(C#N)c(SCC(=O)NCC3CCCO3)nc2c1 (stereo unspecified)	3	4	x	-1	9	-6	i	5
CCOC(=O)C(C)Sc1nc(=O)n2cc(C)ccc2n1 (stereo unspecified)	2	2	-26	-8	-9	x	i	5
Nc1ncnc2c1ncn2[C@@H]1O[C@H](CNC(=O)[C@@H]2CCN2)[C@@H](O)[C@H]1O	1	6	10	x	x	-18	x	x
O=C(Nc1ccc(Cl)cc1)Nc1cc([N+](=O)[O-])ccc1F	3	0	9	43	u	x	i	-6
Cc1ccc2nc(-c3ccc(NC(=O)c4cccnc4)cc3)oc2c1	8	-6	-36	2	-2	x	i	-10
c1cncc(C2OCC3(CO2)COC(c2cccnc2)OC3)c1 (stereo unspecified)	-2	-1	1	-5	1	x	i	-1
O=C(CC1CCCCC1)NCc1ccccn1	1	4	7	-19	-10	-22	i	3
COc1ccc(CN(C)C(=O)Cc2ccc(OC)c(S(=O)(=O)N3CCOCC3)c2)cc1	-2	0	-15	-4	x	0	i	x
O=C(NCC1CCCO1)c1ccc(COc2ccc(Br)cc2)cc1 (stereo unspecified)	2	-17	x	9	14	x	i	-4
O=C(c1c[nH]c2ccccc12)C(O)C(c1ccccc1)N1CCOCC1 (stereo unspecified)	1	0	x	0	-4	-15	i	-7

Remaining list, next part:
SMILES	MT1-MMP act inh	MT1-MMP act inh RFP	HIV Env fusion	CSC inhib	PABP polyA inh	UUG fidelity	Rce1 inh	eIF4H FP inh
CN(C)c1cc2c(cc1NC(=O)c1ccccc1Cl)n(C)c(=O)n2C	9	0	19	-9	2	-5	i	4
CSc1ccc(CN2CCC(C)(Oc3ccc(F)cc3)C2)cc1 (stereo unspecified)	0	-2	-15	x	x	-8	x	x
N#Cc1cccc(CSc2ncnc(N)n2)c1	0	1	-22	-8	7	4	i	-4
Cc1c(C)c2ccc(OC(C)C(=O)NCCCn3ccnc3)c(C)c2oc1=O (stereo unspecified)	7	2	0	-8	7	-1	i	-5
O=C(Nc1ccc(Cl)cn1)c1cccc(S(=O)(=O)N2CCCC2)c1	4	-4	2	2	3	-10	i	6
CC(C)NC(=O)c1cc(-c2cccs2)on1	-1	2	-161	-12	8	x	i	2
CCOc1ccc2[nH]c(=O)c(CN(CCO)C(c3nnnn3C3CCCCC3)C(C)C)cc2c1 (stereo unspecified)	-4	0	x	x	22	4	i	4
CCOC(=O)c1[nH]c(C)c(C(=O)NC(C)(C)C)c1C	-2	1	x	x	-1	-11	i	-8
COc1ccc(CCNC(=O)CSc2ccsc2[N+](=O)[O-])c(OC)c1	1	-1	-12	2	-7	-18	i	-4
N#Cc1ccc2ccn(CC(=O)NCc3ccccc3)c2c1	3	0	x	10	-10	x	i	-9
Cc1ccc2nc3c(cc(C(=O)NCc4ccco4)c(=N)n3Cc3ccco3)c(=O)n2c1	-9	-6	-15	3	u	-12	i	u
CC(C)CCn1c(=O)c2ccccc2n2c(=S)[nH]nc12	-7	0	8	-11	11	-16	i	-1
Cc1nc2c(C)cccn2c1/C(O)=C1\C(=O)C(=O)N(CCN2CCOCC2)C1c1ccncc1 (stereo unspecified)	8	10	x	-12	8	-13	i	1
CC1=C(C(=O)Nc2ccccc2)C(c2ccco2)C(C#N)=C(SCC(N)=O)N1 (stereo unspecified)	10	-4	x	1	7	-9	i	11
CCOC(=O)N1CCc2c(sc(NC(=O)c3ccc(S(=O)(=O)N4CCCC4)cc3)c2C#N)C1	-10	-15	1	13	-1	-13	i	13
CC(NC(=O)c1cccnc1)C(c1cccs1)N1CCN(C)CC1 (stereo unspecified)	-2	7	-5	4	-4	-18	i	-5
CC(C)(C)C(=O)N1CCc2cc(-c3csc(N)n3)ccc21	2	-2	x	7	1	-65	i	-8
O=C(Nc1cccc(OC(F)(F)F)c1)C1Cc2c(-c3ccc4c(c3)OCO4)ccnc2O1 (stereo unspecified)	-2	-9	-5	x	x	-5	x	x
O=C1Nc2ccccc2C1=Nc1cccc([N+](=O)[O-])c1	1	6	-11	2	8	x	i	5
COc1cc(/C=N\NC(=O)c2sc(N)nc2C)cc(OC)c1OC	29	7	-349	2	4	-18	i	2
COc1ccc(NS(=O)(=O)c2ccc(Oc3ncccn3)cc2)cc1	-6	-10	x	-10	-6	x	i	-9
Cn1c(CC(=O)Nc2ccc(Cl)c(Cl)c2)nnc1SCC(=O)N1CCN(c2ccccc2)CC1	-19	-13	x	-4	1	-18	i	8
Cc1cc(Cl)c2oc(C(=O)N(C)Cc3nccn3C)c(C)c2c1	1	2	12	x	3	-4	i	-9
Cc1[nH]c(=O)[nH]c(=O)c1/C=N\NC(=O)CCc1ccc(OC(C)C)cc1	x	x	x	-7	2	x	i	2
CC(Sc1nc2ncc(Cl)cc2[nH]1)C(=O)c1c(N)n(C)c(=O)n(C)c1=O (stereo unspecified)	-2	-2	-21	x	x	-21	i	x

The list continues:
SMILES	MT1-MMP act inh	MT1-MMP act inh RFP	HIV Env fusion	CSC inhib	PABP polyA inh	UUG fidelity	Rce1 inh	eIF4H FP inh
CC(=O)N1CCCc2cc(S(=O)(=O)N3CCc4ccccc4C3)ccc21	0	0	7	5	-9	20	i	-5
CCc1cc(Cn2nc(C(=O)O)cc2-c2ccccc2)on1	3	1	15	-18	x	-17	i	x
Cc1ccc(-c2nc(CS(=O)(=O)CC(=O)N3CC(C)CC(C)C3)c(C)o2)cc1 (stereo unspecified)	1	-9	42	-2	-2	7	i	-8
CS(=O)(=O)N1CCN(c2ccccc2F)CC1	7	10	-56	0	-6	-7	i	-3
COc1cccc(CN(C)C(=O)c2ccccc2Sc2ccccc2C#N)c1	2	2	0	-3	14	-6	i	-7
N#C/C(=C\c1ccccn1)c1nc2ccccc2s1	-104	8	-12	5	u	6	x	u
Cc1ccc(C(=O)COC(=O)c2ccc(-c3cnc4ccccc4n3)cc2)cc1C	2	-15	x	-14	-7	-13	i	0
N#CC(C#N)=Cc1ccc(OC(=O)c2ccccn2)cc1	2	5	-4	-13	-5	x	i	4
COCc1cc(C)nc(SCc2ccc([N+](=O)[O-])cc2)c1C#N	-3	-6	9	3	-4	-22	i	9
Cc1nn(-c2ccc(F)cc2)c(-n2cccc2)c1C(=O)N1CCN(C(=O)c2ccco2)CC1	-1	3	16	3	2	-11	i	-7
Cc1cc(C(=O)N/N=C2\CCCc3ccccc32)c(C)o1	8	7	-23	-1	0	x	i	5
COc1ccc(CN2CCN(C(=O)Cn3nc(C(=O)O)c4ccccc4c3=O)CC2)cc1F	-1	-3	13	-10	3	15	i	10
Cc1ccc(CNCc2ccc3c(c2)OCO3)cc1	1	1	6	-8	6	9	i	10
CCOc1ccccc1NC1=C(Cl)C(=O)N(c2ccc(OC)cc2)C1=O	0	5	13	-17	8	x	i	5
COCC(=O)N(Cc1cc2ccc(C)cc2[nH]c1=O)c1ccc(C)cc1C	1	-3	12	-9	-5	0	i	-11
O=C(O)c1sc2cc(C(F)(F)F)cnc2c1-c1cccs1	2	3	3	-14	-11	x	i	-2
CN(CC(=O)Nc1ccc(F)cc1)C(=O)COC(=O)c1cc([N+](=O)[O-])ccc1N1CCOCC1	4	5	x	-10	x	x	i	x
COc1cc(C)c(NC(=O)COc2ccc3c(c2)OCO3)cc1C	2	-1	-9	-8	2	-7	i	-7
CC1(C(=O)OCC(=O)Nc2ccccc2Cl)CC1(Cl)Cl (stereo unspecified)	3	1	9	-2	u	x	i	-4
O=C(Nc1ccccc1C(=O)O)c1cc(S(=O)(=O)N2CCCCCC2)ccc1Cl	3	5	-1	12	5	-10	i	-9
Nc1ccccc1Nc1ccc([N+](=O)[O-])cc1[N+](=O)[O-]	3	-6	8	-9	9	x	i	6
CCCS(=O)(=O)N1CCN=C1SCc1ccc(C)cc1	1	1	1	9	23	x	x	1
COCc1cc(C)nc(OCC(=O)N/N=C/c2ccc(OC)c(O)c2)c1C#N	2	2	9	1	-1	x	i	2
Cc1ccccc1NC(=O)NC1(C(=O)NCc2ccco2)CCCCC1	2	3	1	-15	12	x	i	-7
Cc1cc(C)c2c(=O)c3c(oc2c1)C(=O)N(CCO)C3c1cccc(O)c1 (stereo unspecified)	4	2	-10	x	-8	-2	i	0
CSc1ccc(NC(=O)Nc2cccn(Cc3ccccc3)c2=O)cc1	-21	-35	3	5	-3	x	i	4

Record cards, from the list above. Order of screens: MT1-MMP act inh	MT1-MMP act inh RFP	HIV Env fusion	CSC inhib	PABP polyA inh	UUG fidelity	Rce1 inh	eIF4H FP inh
Shown for CCOc1ccccc1NC1=C(Cl)C(=O)N(c2ccc(OC)cc2)C1=O = 0	5	13	-17	8	x	i	5
Shown for Cc1nn(-c2ccc(F)cc2)c(-n2cccc2)c1C(=O)N1CCN(C(=O)c2ccco2)CC1 = -1	3	16	3	2	-11	i	-7
Shown for Cc1cc(C)c2c(=O)c3c(oc2c1)C(=O)N(CCO)C3c1cccc(O)c1 (stereo unspecified) = 4	2	-10	x	-8	-2	i	0
Shown for Cc1cc(C(=O)N/N=C2\CCCc3ccccc32)c(C)o1 = 8	7	-23	-1	0	x	i	5
Shown for N#CC(C#N)=Cc1ccc(OC(=O)c2ccccn2)cc1 = 2	5	-4	-13	-5	x	i	4
